Screens from PubChem.
VACV mCherry inh: qHTS for Stage-Specific Inhibitors of Vaccinia Orthopoxvirus: mCherry Reporter Primary qHTS | 310,000 compounds, 0.63% hits | AID 720579, 2013 | Potency, µM (highest dose often 36.5 µM), for the others: at the highest dose activity change, negative = inhibition, actives largely listed as inhibitors | Vaccinia virus mCherry reporter infection, fluorescence; about a quarter of the inactives have no number; active = well fitted inhibition curve with a large enough effect; inconclusive = small, poorly fitted or top-dose-only effect; inactive = no such curve, though single readings can be large or run the other way; tested in A549 cells; also: nearly all actives have a fitted effect of over 35% in size; inactives centre near -10
VACV Venus inh: qHTS for Stage-Specific Inhibitors of Vaccinia Orthopoxvirus: Venus Reporter Primary qHTS | 330,000 compounds, 0.46% hits | Vaccinia virus Venus reporter expression, fluorescence | Potency, µM (titrated, usually from 36.5 µM), for inactives: at the top dose activity change, negative = inhibition, most hits filed as inhibitors; active means well fitted inhibition curve with a large enough effect; inconclusive means small, poorly fitted or top-dose-only effect; inactive means no such curve, though single readings can be large or run the other way; tested in A549 cells; also: nearly all actives have a fitted effect of over 30% in size; inactives centre near -10
Active calls of the source: *; i = inactive; ? = inconclusive; . = no result given; & = joins results of further samples; [ ] = dose if it differs, or a comment. % is scaled to controls: 0 for no effect and ±100 for the full control effect; potency is read from the fitted curve at half-maximal effect. This is a random part of the collection, and some 0.82% of all compounds hit somewhere here.

| SMILES | VACV mCherry inh | VACV Venus inh |
| --- | --- | --- |
| O=C(NC1CCCC1)c1cc(-c2ccc(Cl)cc2Cl)on1 | i | 0% |
| CCN(CC(=O)NCc1ccco1)S(=O)(=O)c1ccc(OC)cc1 | -7% | -1% |
| O=C(O)CCc1ccc2ccccc2c1 | -14% | -4% |
| CCCCC(CC)CN=C(N)NC(N)=NCCCCCCN=C(N)NC(N)=NCC(CC)CCCC (configuration not stated) | ? | 10µM* |
| O=C1NC(=O)C(CCc2ccccn2)(Cc2cccc(Cl)c2Cl)C(=O)N1c1ccc(Br)cc1 (configuration not stated) | -1% | -14% |
| O=C(OCC(=O)N1CCCC1=O)c1ccc(F)c(S(=O)(=O)N2CCOCC2)c1 | -12% | -13% |
| COc1ccc(NC(=O)c2nc(SCc3ccccc3F)ncc2Cl)cc1 | -13%&39% | -3%&-2% |
| CCS(=O)(=O)N1CCCC(C(=O)NCc2ccc(C)cc2)C1 (configuration not stated) | -7% | 3% |
| Cc1ccc2[nH]c3c(c2c1)CN(C)CC3 | . | -28% |
| CCCCN1C(=O)C(CC(=O)NCCCN(C)C)CC(C(=O)N2CCOCC2)=C1C (configuration not stated) | i | -7% |
| Cc1nnc(NC(=O)C2COc3ccccc3O2)s1 (configuration not stated) | -14% | -7% |
| Cn1c(Cc2ccccc2)n[nH]c1=S | i | -19% |
| CCOc1cc(/C=C2/NC(=S)NC2=O)ccc1OCc1ccc([N+](=O)[O-])cc1 | ? | ? |
| O=C1CC(N2CCSCC2)C(=O)N1CCc1ccccc1 (configuration not stated) | -7% | -10% |
| COc1ccc(Cl)cc1Nc1nc(C)cc(C)c1C(N)=O | . | -14% |
| CCCCCNC(=O)CCCCn1c(=O)[nH]c2cc(OCC)c(OCC)cc2c1=O | -4% | -7% |
| COc1cc2[nH]c(=O)n(CCCCCC(=O)NCCc3ccccc3)c(=O)c2cc1OC | -7% | 10% |
| C=C(C)CSc1nc(N)c2c(C)c(C)sc2n1 | i | -9% |
| CCCN1C(=O)c2ccccc2NC1c1ccc(OC)c(COc2cccc(OC)c2)c1 (configuration not stated) | 5% | -18% |
| CN(CC(=O)Nc1ccccc1Cl)C(=O)CSC(=S)N1CCCC1 | i | -1% |
| Cc1ccc(C(=O)Nc2c(C)cc(-c3ccccc3)oc2=O)cc1 | -16% | -22% |
| Cc1cc(C(=O)NCCCN(C)C)c2ccccc2n1 | -15% | 1% |
| CN(C)C(=O)COc1ccc(C(=O)/C=C/c2cccnc2)cc1 | 3% | 0% |
| O=C(CCn1cccc1)NCc1ccccc1 | -4% | -8% |
| CC(=O)c1cc2c(cc1N/C(=N/S(=O)(=O)c1ccc(Cl)cc1)c1ccc(F)cc1)OCO2 | -27% | -18% |
| CCCN(CCC)CCCNC(=O)c1cn(CCOC)c(=O)c2c1c1ccccc1n2C | i | -6% |
| CCOc1ccccc1CN1CCN(Cc2cccc3nonc23)CC1CCO (configuration not stated) | ? | 7% |
| COc1ccc(C(=O)OC2=C(C(=O)c3ccccc3)N(C)S(=O)(=O)c3ccccc32)cc1OC | -2% | -25% |
| CCOC(=O)C1=C(C)NC(=S)NC1c1ccc(-c2ccc(Cl)cc2)o1 (configuration not stated) | i | -19% |
| Cc1cc(=O)oc2c(C)c(OCC(=O)N3CCC(C(=O)O)CC3)ccc12 | 0% | -1% |

Next part:
| SMILES | VACV mCherry inh | VACV Venus inh |
| --- | --- | --- |
| O=C1CC(c2ccccc2)Cc2[nH]c(=O)c(C(=O)O)cc21 (configuration not stated) | 35%[activator] | -4% |
| CCOC(=O)c1c(CN(C)C)n(-c2ccccc2)c2cc(Br)c(OC)cc12 | 0% | ? |
| Cc1cc(C)cc(N(CC(=O)Nc2cccc(C)n2)S(=O)(=O)c2c(C)noc2C)c1 | i | -10% |
| COCCN(C(C)=O)c1nnc(-c2cnccn2)s1 | -14% | 0% |
| COc1ccc(C)cc1-n1nnc(-c2nc(-c3ccccc3Cl)no2)c1N | -17% | -14% |
| CCOC(=O)Cn1c(=O)oc2cc(S(=O)(=O)NCCC(C)C)ccc21 | i | -17% |
| CC(=O)N1c2ccccc2N=C(c2ccc(C(F)(F)F)cc2)C1C(=O)NC1CCCC1 (configuration not stated) | -29% | -25% |
| CCc1cc2c(-c3ccccc3)cc(=O)oc2cc1OC(C)C(C)=O (configuration not stated) | -12% | -29% |
| CCOC(=O)C1CCN(C(=O)c2cc3cc4cc(OC)ccc4nc3o2)CC1 | i | -12% |
| COc1cc2c(cc1NC(=O)C(C)Sc1cccc[n+]1[O-])oc1ccccc12 (configuration not stated) | -7% | -21% |
| C=C1c2ccccc2S(=O)(=O)N(Cc2ccccc2)C1COCc1ccccc1 (configuration not stated) | -15% | -11% |
| O=C(NCCN1CCCC1)C1CC(=O)N(C2CCCCC2)C1 (configuration not stated) | -13%[1.46 µM] | -13% |
| CCCc1nnc(SCC(=O)N2CCCC(C)C2)n1CCCOC (configuration not stated) | -10% | -5% |
| CCOC(=O)N1CCN(C(=O)c2ccc(Cl)c(S(=O)(=O)Nc3ccccc3)c2)CC1 | . | -8% |
| CCC(C(=O)Nc1ccccc1C(=O)OC)n1nc(C)c2c(C)n(-c3ccc(C)cc3)nc2c1=O (configuration not stated) | ? | ? |
| CC(C)N(Cc1cc2ccccc2[nH]c1=O)C(=O)c1cccc([N+](=O)[O-])c1 | i | -10% |
| O=C(Nc1ccc2c(c1)OCCO2)C1CCCN1C(=O)Nc1ccccc1 (configuration not stated) | -15% | 5% |
| O=C(c1ccc(-n2cncn2)c([N+](=O)[O-])c1)N1CCN(S(=O)(=O)c2c(F)cccc2F)CC1 | -15% | -11% |
| CC(=O)N1N=C2c3ccccc3CCC2C1c1ccc(F)cc1 (configuration not stated) | -3% | -18% |
| Cc1nn(-c2ccc(Cl)c(Cl)c2Cl)c(=O)c2ccccc12 | . | -23% |
| CC(C)Cn1c2c(c(=O)[nH]c1=O)C(C(F)(F)F)(C(F)(F)F)N=C(CCC1CCCCC1)N2 | -17% | -12% |
| COc1ccc(C#Cc2ccc(C3=CC(=O)CC(C)(C)C3=O)cc2)cc1 | ? | ? |
| COc1ccc(CNC(=O)c2cnc3sc(N4CCC(C)CC4)nn3c2=O)c(OC)c1 | -27% | -20% |
| CCC12CN3CCN(CC(C3)/C1=N\NC(=O)c1ccc(C(C)(C)C)cc1)C2 | -22% | -11% |
| Cc1cc2c(cc(C(=O)OCC(=O)NC3CCCCC3)n2C)o1 | i | -19% |
| CC(=O)CCCC(NS(=O)(=O)CCC(Cl)(Cl)Cl)c1ccccc1 (configuration not stated) | -10% | -14% |
| Clc1cccc(Cc2c(-c3cccc(Br)c3)nc3c4ccccc4ccn23)c1 | -1% | 11% |
| C[C@@H]1CN([C@@H](C)CO)S(=O)(=O)c2ccc(Br)cc2O[C@@H]1CN(C)S(=O)(=O)c1cn(C)cn1 | -6% | -23% |
| CCOc1cc(S(=O)(=O)N2CCC(c3nc4ccccc4s3)CC2)c(OCC)cc1S(=O)(=O)N1CCCCC1 | -14% | -2% |
| CCC(=O)N1CCCC(C(=O)Nc2nc3ccccc3[nH]2)CC1 (configuration not stated) | 23% | -3% |

New compounds follow
| SMILES | VACV mCherry inh | VACV Venus inh |
| --- | --- | --- |
| Cc1ccccc1/C=N/NC(=O)Cc1ccc(Cl)cc1 | -20% | -14% |
| CCS(=O)(=O)N1CCC(C(=O)NCCc2ccccc2)CC1 | -12% | -7% |
| CC1(C)CC(=O)C2=C(C1)Oc1ncn3nc(-c4cccnc4)nc3c1C2c1ccccc1 (configuration not stated) | . | -12% |
| Cc1ccc(CSCCNC(=O)CN(c2ccccc2)S(C)(=O)=O)cc1 | -14% | -15% |
| NC(=O)C1CCCN(C(=O)c2ccc(-c3cccc(Cl)c3Cl)o2)C1 (configuration not stated) | i | -16% |
| Cc1ccc(NC(=O)Cn2cc(S(=O)(=O)c3ccc(C)cc3)c(=O)c3cc(F)ccc32)cc1 | -16% | -6% |
| Cc1cc(C)nc(NS(=O)(=O)c2ccc(N3C(=O)c4ccccc4C3=O)cc2)n1 | i | -9% |
| Cc1nc(-c2ccccc2)nc2[nH]c(-c3ccccc3)cc(=O)c12 | -22% | -20% |
| O=C(c1ccc(Cl)cc1)c1c[nH]c(C(=O)NNc2cccc(Cl)n2)c1 | ? | 11µM* |
| O=C(N1CCN(c2ccccc2F)CC1)C1(c2cccs2)CCOCC1 | -17% | 2% |
| C/C(=N\NC(=O)c1cccc(S(=O)(=O)N2CCCC2)c1)c1cccs1 | -8% | 8% |
| COc1cc2c(cc1OC)C(c1ccccc1[N+](=O)[O-])=NCC2 | i | 5% |
| CCc1ccc(NC(=O)c2cc(=O)c3ccc(C)c(C)c3o2)cc1 | i | -28% |
| O=C(COn1nnc2ccccc21)NCC1CCCCC1 | -13% | -7% |
| NC(=O)c1cccc([N+](=O)[O-])c1 | -12% | -9% |
| CCC(CC)c1nnc(NC(=O)C2CSC3(C)CCC(=O)N23)s1 (configuration not stated) | i | -18% |
| CCOC(=O)c1ccc(-c2ccc(/C=N/NC(=O)c3cncc(Br)c3)o2)cc1 | i | -7% |
| O=C(CSc1nccn1-c1cccc(Cl)c1)Nc1cccc(C(F)(F)F)c1 | i | -4% |
| O=C(CN1C(=O)C2C3C=CC(C3)C2C1=O)Nc1ccc2nccnc2c1 (configuration not stated) | i | 5% |
| O=C(OCC1OC(n2ncc(=O)[nH]c2=O)C(OC(=O)c2ccccc2)C1OC(=O)c1ccccc1)c1ccccc1 (configuration not stated) | -5% | 4% |
| CC(C)CCNc1nc2ccccc2nc1NS(=O)(=O)c1cccs1 | -24% | -13% |
| CNC(=O)COC(=O)c1ccc(OCC(=O)Nc2ccccc2OC)c(OC)c1 | -2% | 0% |
| CC(C)CN(C(=O)CCNC(=O)c1ccc([N+](=O)[O-])cc1)C1CCS(=O)(=O)C1 (configuration not stated) | i | -2% |
| N[C@H](C(=O)O)c1cccc(O)c1 | -13% | -5% |
| Clc1ccccc1CNc1ncnc2c1c(-c1ccccc1)cn2-c1ccccc1 | -18% | -11% |
| CSc1ccc(C(=O)NCC(=O)O)cc1[N+](=O)[O-] | -2% | 2% |
| O=[N+]([O-])c1ccc(Sc2n[nH]c(-c3ccccc3)n2)nc1 | ? | ? |
| O=C(Oc1ccc(C(=S)N2CCCCC2)cc1)c1ccccc1 | -5% | -9% |
| OCC1(CCOc2ccccc2)CCN(Cc2ccccc2OC(F)F)CC1 | -3% | -13% |
| CCOC(=O)C(=Cc1ccc(OCc2ccc([N+](=O)[O-])cc2)c(OC)c1)C(=O)OCC | -14% | -8% |

Part of the list above, reformatted.
Each structure is followed by: VACV mCherry inh	VACV Venus inh
COc1cc2c(cc1OC)C(c1ccccc1[N+](=O)[O-])=NCC2
  i	5%
CCc1ccc(NC(=O)c2cc(=O)c3ccc(C)c(C)c3o2)cc1
  i	-28%
O=C(COn1nnc2ccccc21)NCC1CCCCC1
  -13%	-7%
NC(=O)c1cccc([N+](=O)[O-])c1
  -12%	-9%
CCC(CC)c1nnc(NC(=O)C2CSC3(C)CCC(=O)N23)s1 (configuration not stated)
  i	-18%
CCOC(=O)c1ccc(-c2ccc(/C=N/NC(=O)c3cncc(Br)c3)o2)cc1
  i	-7%

The list continues:
| SMILES | VACV mCherry inh | VACV Venus inh |
| --- | --- | --- |
| CN(CCOC(=O)c1cccc(F)c1)Cc1ccccc1 | i | -21% |
| O[C@@H]1CN(Cc2cccs2)[C@@H](c2ccc(Cl)cc2)C[C@H]1n1cc(-c2ccc(F)cc2)nn1 | 0% | ? |
| Cc1ccccc1C(=O)Nc1cc(C)c(O)c(-c2nc3ccccc3o2)c1 | -3% | 14% |
| O=C(c1ccccc1F)N1CCN(c2ccc([N+](=O)[O-])c(NCc3cccnc3)c2)CC1 | i | -8% |
| CCOc1cc(/C=N/NC(=O)CCCC(=O)NC2CCCCC2)ccc1O | -10% | -15% |
| CC/C(=N\NC(=O)c1nnn(-c2nonc2N)c1-c1cccs1)c1ccccc1 | ? | -15% |
| COc1cccc(-c2nnn(CC(=O)Nc3cc(OC)c(NC(=O)c4ccco4)cc3OC)n2)c1 | -5% | -28% |
| COc1cccc(/C(C)=N/NC(=O)Cc2c(C)[nH][nH]c2=O)c1 | i | -7% |
| Cc1ccc(NC2SC(=O)N(Cc3cccc(C(=O)O)c3)C2=O)c(C)c1 (configuration not stated) | -10% | 9% |
| Cc1ccc(CNC(=O)CCCCCn2c(=O)c3sccc3n(CC(=O)N(C)c3ccccc3)c2=O)cc1 | -2% | 5% |
| Cc1cccc(NC(=O)CCCCCN2C(=O)c3ccccc3C2=O)n1 | . | -9% |
| COc1ccc(NC(=O)C2Cc3c(-c4cccc(C(N)=O)c4)ccnc3O2)cc1OC (configuration not stated) | -7% | -1% |
| CCCCN(C(=O)c1cccc(S(=O)(=O)N2CCN(C)CC2)c1)c1c(N)n(CC(C)C)c(=O)[nH]c1=O | i | -7% |
| O=P(C(c1c[nH]c2ccccc12)N1CCOCC1)(N1CCOCC1)N1CCOCC1 (configuration not stated) | -20% | -3% |
| COC(=O)c1ccc(NC(=O)C2C3C=CC(O3)C2C(=O)O)cc1 (configuration not stated) | . | -5% |
| Cc1cc(N2C(=O)CCC2=O)n(-c2ccccc2)n1 | -11% | -9% |
| CC[C@@]12C(=O)N(c3cccc(Br)c3)C(=O)N1[C@H](c1ccc(Cl)cc1)[C@@H]1C(=O)N(C3CCCCC3)C(=O)[C@@H]12 | -3% | -4% |
| Cc1ccccc1Cn1c(=O)n(CCCCC(=O)NCc2ccccc2Cl)c(=O)c2ccccc21 | -19% | -19% |
| O=C(CS(=O)(=O)c1cccc2nsnc12)N1CCN(c2ccccc2F)CC1 | i | -2% |
